Six1-Eya2 blk = blocks human Six1 binding to Eya2; activity change, % (test concentration not listed); Q15475+O00167; AID 651725; actives 0.56% (n = 360,000); AlphaScreen GST-Six1/His-Eya2 binding, biochemical; stronger effect = lower value; control for the full effect not named in the record; in the data active = activity change below about -65%; inconclusive = about -30% to -65%; inactive = above about -30%; also: % is scaled to controls: 0 for no effect and ±100 for the full control effect; compound concentration not given in the record
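GST-Six1 + His-Eya2 (5X stock: 250/500 nM); Tris pH 8.0, 300 mM NaCl, 0.05% BSA, 0.02% Tween 20; GSH donor/Ni acceptor beads; 1 h 37 °C dark; AlphaScreen readout.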
TRPML1 inh = inhibitors of human TRPML1 channel; activity change, negative = inhibition, % (test concentration not listed); Q9GZU1; actives 0.02% (n = 390,000); TRPML1-inducible cells, Ca2+ dye fluorescence, FDSS; stronger effect = lower value; inhibition of EC80 agonist-evoked calcium signal; in the data active means activity change below about -50%; inconclusive means about -30% to -50%; inactive means above about -30%;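 also: stimulus is agonist 54-4 at its EC80 concentration; % is scaled to controls: 0 for no effect and ±100 for the full control effect; compound concentration not given in the record; the text of the record puts the active cut at -80%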
Target sequence (Q9GZU1 whole entry, looked up): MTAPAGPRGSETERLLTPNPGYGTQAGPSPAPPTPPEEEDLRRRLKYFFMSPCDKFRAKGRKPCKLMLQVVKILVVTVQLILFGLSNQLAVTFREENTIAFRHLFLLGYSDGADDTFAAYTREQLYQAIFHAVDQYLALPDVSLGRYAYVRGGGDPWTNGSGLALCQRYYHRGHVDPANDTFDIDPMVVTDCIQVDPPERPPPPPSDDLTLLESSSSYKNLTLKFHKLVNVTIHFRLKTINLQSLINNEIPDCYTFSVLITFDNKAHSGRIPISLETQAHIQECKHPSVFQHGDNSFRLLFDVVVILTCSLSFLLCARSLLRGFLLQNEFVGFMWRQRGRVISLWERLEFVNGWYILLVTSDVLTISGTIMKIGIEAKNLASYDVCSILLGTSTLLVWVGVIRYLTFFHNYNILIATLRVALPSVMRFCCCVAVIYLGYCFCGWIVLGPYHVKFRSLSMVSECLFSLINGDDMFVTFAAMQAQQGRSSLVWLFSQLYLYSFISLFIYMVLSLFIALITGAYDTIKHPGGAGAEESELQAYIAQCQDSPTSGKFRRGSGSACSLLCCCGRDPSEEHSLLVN
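Calcium fluorescence in TRPML1-DL cells induced overnight with Tet: a 110 s read after compound pin addition, then a 110 s antagonist read after challenge with 54-4 at 4 uM final (EC80).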
D2 PAM = potentiates the human D2 dopamine receptor allosterically. DiscoveRx D2 beta-arrestin cells, luminescence, 90 min; 100% = 57 uM dopamine signal. AID 624464. potentiation, % (test concentration not listed). actives 0.23% (n = 360,000); active = potentiation of 50% or more; inconclusive = 30% to 50%; inactive = 30% or less;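 also: compound concentration not given in the record; tested on top of an EC20 dose of dopamine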
Target sequence (P14416 whole entry, looked up): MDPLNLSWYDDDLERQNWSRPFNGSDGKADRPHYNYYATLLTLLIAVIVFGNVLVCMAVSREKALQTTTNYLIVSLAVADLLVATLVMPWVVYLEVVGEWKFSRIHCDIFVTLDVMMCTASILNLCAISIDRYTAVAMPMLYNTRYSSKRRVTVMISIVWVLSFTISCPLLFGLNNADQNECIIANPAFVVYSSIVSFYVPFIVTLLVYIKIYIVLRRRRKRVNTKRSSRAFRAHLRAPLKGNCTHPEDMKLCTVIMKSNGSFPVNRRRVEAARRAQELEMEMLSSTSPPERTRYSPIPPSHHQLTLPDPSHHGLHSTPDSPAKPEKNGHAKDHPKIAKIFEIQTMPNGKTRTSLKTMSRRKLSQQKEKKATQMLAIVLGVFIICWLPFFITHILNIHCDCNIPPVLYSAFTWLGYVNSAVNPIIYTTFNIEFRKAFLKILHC
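PathHunter D2 cells, attached overnight at 37 deg C, received compound in DMSO plus dopamine at EC20 (50 nM final) for 90 min at 37 deg C. Beta-arrestin recruitment was read as luminescence after 1 h with detection reagent at ambient temperature.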
D2 agonist = agonists of human D2 dopamine receptor (beta-arrestin) | actives 0.084% (n = 360,000) | DiscoveRx PathHunter D2 beta-arrestin, luminescence, 90 min; 100% = 57 uM dopamine signal | P14416 | activation, % (no concentration beside the values); in the data active = activation above about 40%; inconclusive = about 15% to 40%; inactive = below about 15%; also: compound concentration not given in the record; the text of the record calls up to 30% inactive
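Agonist mode: compounds alone added to overnight-plated D2 PathHunter cells for 90 min at 37 C, with 57 uM final dopamine (EC100) defining full response. Beta-arrestin recruitment detected by chemiluminescent reagent, read after 1 h at ambient temperature.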
PINK1 expr mod = changes PINK1 expression. actives 0.2% (n = 410,000). PINK1 immunofluorescence, high-content cytometry, 24 h. AID 624263. Potency, µM (top dose mostly 76.6 µM), for the others: at the highest dose activation (PINK1 increase), most hits filed as activators; active = well fitted activation curve with a large enough effect; inconclusive = small, poorly fitted or top-dose-only effect; inactive = flat fitted curve, though single readings scatter; cell line not stated here;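 also: potency is read from the fitted curve at half-maximal effect; % of control where 0% means no effect; nearly all actives have a fitted effect of over 65% in size; a mitochondrial uncoupler was the plate control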
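PINK1 protein level read as immunofluorescence by microplate cytometer in a fixed, stained stable cell line after 24 h exposure to five compound concentrations, with CCCP as control.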
TRPML1 ag = agonists of human TRPML1 channel. TRPML1-expressing cells, Ca2+ dye fluorescence, FDSS; host cell line not named in the record; reference of the full effect not given here. activation, % (concentration not given with the values). actives 0.12% (n = 410,000). AID 624414; in the data active = activation above about 50%; inconclusive = about 30% to 50%; inactive = below about 30%; also: 0% is about no effect; the text of the record puts the active cut at 80%
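Tetracycline-induced TRPML1-DL cells are seeded and incubated overnight before loading with a no-wash Ca2+ dye and quencher. Agonist activity is taken from the 110 s fluorescence read following compound pin-transfer on an FDSS, before EC80 54-4 challenge.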
The depositor's hits bear a star; ? = inconclusive; / = no result given; & = joins results of further samples; [ ] = remark or other dose. Outcome played no part in choosing rows; about 1% have a hit in one of these screens.

no.	SMILES	Six1-Eya2 blk	TRPML1 inh	D2 PAM	D2 agonist	PINK1 expr mod	TRPML1 ag
1	CCCN(C(=O)CSc1nnc(-c2ccncc2)n1CCC)c1c(N)n(Cc2ccccc2)c(=O)[nH]c1=O	-7.7	12.9	-3.8	1.0	0.9%	-0.3
2	Cc1sc2ncnc(N[C@@H](CCC(=O)O)C(=O)O)c2c1C	4.8	5.3	-11.2	0.0	-1.2%	0.7
3	COc1ccc(Cl)cc1NC(=O)CCNS(=O)(=O)c1cccc2nonc12	-0.2	-5.8	-6.3	1.8	0.0%	-0.1
4	CC(=O)Nc1ccc(S(=O)(=O)N[C@@H](C)C(=O)OCC(=O)c2ccc(C)cc2)cc1	6.1	31.9	-1.4	3.7	0.4%	-0.6
5	Cn1c(SCC(=O)N2CCCc3ccccc32)nnc1-c1cccs1	1.2	13.0	-10.8	-2.4	-2.2%	-0.3
6	CC(=O)NS(=O)(=O)c1ccccc1	0.8	6.6	-4.2	0.0	/	0.2
7	N#Cc1c(N)n(CCCN2CCOCC2)c2nc3ccccc3nc12	?	2.3	-12.9	-3.7	1.4%	-0.3
8	O=C(CCN1C(=O)/C(=C/c2ccccc2F)SC1=S)N[C@@H](CO)Cc1ccccc1	-5.5	35.6	-0.7	-0.2	2.2%	0.4
9	CNCc1ccc(OCc2ccccc2)c(OC)c1	5.0	2.7	-4.5	-2.9	-1.0%	2.4
10	COc1ccc(CCC(=O)NCCS(=O)(=O)N2CCN(c3ccccc3F)CC2)cc1	-4.1	-10.5	-11.7	5.0	-1.6%	-0.7
11	COc1ccccc1CNC(=O)CS(=O)(=O)c1ccccc1	0.5	-16.8	-7.0	4.0	-0.8%	0.3
12	NS(=O)(=O)c1ccc(CCNc2ncnc3c2cnn3-c2cccc(Cl)c2)cc1	/	-14.2	/	/	-0.5%	0.6
13	COc1ccccc1OCC#CCn1ccnc1	-1.2	-18.3	-9.6	0.3	2.5%	0.7
14	O=C(CN1CCN(S(=O)(=O)c2ccc(Cl)s2)CC1)NCc1ccc(Cl)cc1	10.8	12.9	-10.6	3.3	1.4%	2.0
15	O=C1CCCC/C=C\C[C@H](CC(=O)N(CCO)Cc2ccccc2)C(=O)N2CCC[C@@H]2CO1	4.8	8.0	-8.5	-1.0	-0.5%	0.4
16	COc1ccc2[nH]c3c(c2c1)CCN1C(=O)N([C@@H](C)C(=O)NCc2ccco2)C(=O)[C@]31C	-6.6	/	-13.9	-3.1	1.0%	/
17	CCN(CC(=O)Nc1c(F)cccc1F)C(=O)CN1C(=O)C2CCCCC2C1=O (stereo unspecified)	2.9	-8.8	7.1	3.1	-1.5%	1.3
18	CCn1cc(C(=O)NCCc2ccc(C)cc2)c(=O)c2cc(S(=O)(=O)N(C)C)ccc21	5.6	-20.3&-0.7	-15.6	-3.9	0.3%&2.0%	0.8&-0.3
19	O=C(NCC1CCCCC1)c1csc([C@@H]2O[C@H](CO)[C@H](O)[C@H](O)[C@H]2O)n1	6.6	19.9	-5.9	-1.8	0.5%	0.5
20	COc1ccc(N2CCN(C(=O)c3csc4ccccc34)CC2)cc1	-28.3	6.7	2.4	-3.5	54.6%[38.3 µM]	-0.2
21	COc1ccc(S(=O)(=O)c2c(Nc3cccc(Cl)c3)sc(C(=O)c3ccccc3)c2N)cc1	/	17.0	/	/	1.8%	14.6
22	O=C(NCc1ccco1)C(c1ccncc1)N(C(=O)Cc1cccs1)c1ccccc1 (stereo unspecified)	9.7	-13.5	-0.4	0.8	-0.7%	0.5
23	O=C(c1ccc2c(c1)OCCO2)N1CCN(c2ccccn2)CC1	-2.5	9.3	-2.7	-1.3	-1.1%	0.3
24	CC(=O)Nc1cccn(Cc2c(Cl)cccc2Cl)c1=O	5.2	-7.8	-6.4	5.6	1.3%	-0.4
25	CC(=O)Nc1ccc(-c2csc(NC(C)c3ccccc3)n2)cc1 (stereo unspecified)	-6.5	15.4	-2.5	-1.0	0.2%	-0.3
26	CCOCC(=O)Nc1ccc(OCc2ccccc2)cc1	5.4	36.2	-0.9	-6.5	2.7%	-0.2
27	N#Cc1ccc2[nH]cc(CCO)c2c1	14.0	-1.8	18.9	-0.9	1.7%	0.0
28	CCCc1cc(C(=O)Nc2c(C)nn(Cc3ccc(C)cc3)c2C)no1	/	-26.0	/	/	0.2%	-1.6
29	C=CC[C@H](CC(=O)NCCO)C(=O)N[C@@H](COC(=O)[C@H](CC=C)CC(=O)OC(C)(C)C)Cc1ccccc1	2.4	-0.6	/	-0.3	-0.5%	-0.7
30	CCCN1C(=O)c2[nH]nc(-c3cccc(OC)c3)c2C1c1ccccn1 (stereo unspecified)	/	5.3	/	/	0.2%	2.2
31	COc1cc(NC(=O)Cn2cnc(S(=O)(=O)N3CCC(C)CC3)c2)cc(OC)c1OC	-10.4	2.7	-27.6	-1.0	-0.3%	-0.1
32	CC(=O)c1ccc(N2CCN(C(=O)C3CCN(S(=O)(=O)c4ccc(Br)s4)CC3)CC2)cc1	/	-0.8	/	/	3.0%	4.7
33	O=C(CC(c1ccccc1)c1cc(Cl)ccc1O)N1CCOCC1 (stereo unspecified)	-6.3	13.3	11.7	-4.1	-0.6%	1.2
34	CCOC(=O)N1CCN(CC(=O)Nc2cc(C)nn2-c2nc3ccccc3s2)CC1	1.0	5.5	-12.3	-3.5	-1.5%[38.3 µM]	-0.3
35	Cc1c(Cl)cccc1NC(=O)C1CCCN(c2ncnc3onc(C)c23)C1 (stereo unspecified)	/	20.0	/	/	-1.5%	-0.1
36	CCOc1cc(C2C(C(=O)c3ccc(C)o3)=C(O)C(=O)N2CCc2ccccc2)ccc1O (stereo unspecified)	1.5	4.7	-6.2	-3.7	1.0%	-1.2
37	Cn1nc(C(=O)O)c(=O)n(C)c1=O	10.2	4.4	-2.9	-1.7	-0.4%	0.0
38	Cc1ccc(/C=N\NC(=O)COc2ccc(C)cc2[N+](=O)[O-])cc1	-0.5	24.2	-6.4	-2.6	3.0%	-0.4
39	Cc1ccc(-c2nn(C)c(=O)c3ccccc23)cc1S(=O)(=O)N1CCCC1	-6.5	1.3	-8.7	-3.4	3.4%	-0.9
40	COc1ccc(CN(C)C(=O)CCCNC(=O)c2ccc(Cl)cc2)cc1	-0.7	-5.7	-26.5	1.4	0.6%	-0.3
41	COc1cc2c(cc1OC)C(SC)=NC1(CCCC1)C2	-1.3	-0.7	0.2	2.0	-1.5%	-0.9
42	O=C(Nc1ccc2c(c1)OCO2)N1CCN(S(=O)(=O)c2ccc(Cl)cc2)CC1	-7.3	5.9	-7.7	-0.6	3.1%[38.3 µM]	-0.5
43	Cc1ccccc1C(=NC(=O)c1ccccc1)c1ccccc1	14.7	1.0	-5.4	-0.9	9.5%	2.0
44	COc1ccc(NC(=O)c2ccccn2)cc1OC	-2.8	-6.6	-6.2	0.3	2.7%	0.3
45	CC1(C(=O)NCc2ccccc2)Oc2ccccc2NC1=O (stereo unspecified)	0.0	-1.4	29.9	-1.5	-1.6%	-0.9
46	CC(C)CC(=O)Nc1ccc(C(=O)CN2CCN(c3ccc(O)cc3)CC2)cc1	0.2	0.3	4.8	6.0	-1.2%	0.0
47	Cc1nc2ccccc2c(-c2ccccc2)c1C(=O)c1ccccc1	-2.2	0.3	-2.6	-1.8	-2.3%	1.3
48	OCCN1CCN(c2ncnc3c2ncn3[C@H]2CN(Cc3ccc(F)cc3)C[C@@H](CO)O2)CC1	-15.0	/	-3.9	-4.2	0.1%	0.3
49	Cc1csc(=O)n1CCC(=O)OCc1nnc(-c2ccccc2Cl)o1	-7.7	-1.7	8.8	2.1	0.9%	0.1
50	CN(C)/C=N/C(=S)Nc1ccccc1Cl	4.1	6.4	-11.7	-2.3	-0.4%	0.6
51	CCOc1cc(/C=N\NC(=O)c2ccc(NC(=O)C(C)(C)C)cc2)ccc1OC(=O)c1cccc(C)c1	0.0	-5.9	22.0	3.4	2.7%	0.8
52	CC(NC(=O)COC(=O)c1ccc2ccccc2n1)c1ccccc1 (stereo unspecified)	2.7	-7.0	-13.9	-1.5	2.3%	-0.7
53	COc1ccc(C(=O)Nc2ccc(NC(=O)C3CCCCC3)nc2)cc1	-1.1	-13.4	-0.9	-1.4	3.2%	0.0
54	CCOc1ccc(NCc2cccn2-c2nnc(N3CCC(C(=O)NCc4ccccc4Cl)CC3)s2)cc1	/	1.6	/	/	-0.7%	0.7
55	CCN(C(=O)c1cccc(S(=O)(=O)N2CCCCC2)c1)C1CCS(=O)(=O)C1 (stereo unspecified)	-13.0	4.6	20.1	1.4	0.5%	0.2
56	Cn1ncc(Cl)c1C(=O)NCC1CCCO1 (stereo unspecified)	-0.6	7.6	-8.2	-1.4	0.4%	0.0
57	CN(C)S(=O)(=O)c1ccc(C(=O)NC(=O)CSc2nncs2)cc1	4.8	-7.3	-3.1	-4.4	3.0%	0.2
58	CCCN1CCN(S(=O)(=O)c2ccc3c(c2)NC(=O)C(C)S3)CC1 (stereo unspecified)	1.7	-2.9	-7.5	3.6	-1.5%	-1.6
59	Clc1ccc(N2CCN(c3nc4nonc4nc3N3CCSCC3)CC2)nc1	-10.5	22.6	-9.2	-3.5	0.4%	-0.4
60	CCc1c(C)nc(SCCOc2ccc(OC)cc2)[nH]c1=O	-9.8	14.3	1.6	4.4	-0.1%	-1.3

Remaining list, next part:
no.	SMILES	Six1-Eya2 blk	TRPML1 inh	D2 PAM	D2 agonist	PINK1 expr mod	TRPML1 ag
61	O=C(CN1C(=O)NC2(CCCC2)C1=O)N1CCN(c2ccc(C(F)(F)F)cc2[N+](=O)[O-])CC1	-2.6	-11.0	-1.4	-0.2	-1.7%	0.0
62	Cc1ccc(Cl)cc1N1CCN(C(=O)c2cn(C)c3ccc(S(=O)(=O)N4CCC(C)CC4)cc3c2=O)CC1	/	7.1	/	/	0.7%	-0.8
63	CC1CCN(CCCNC(=O)C2CCC(=O)N2C2CCCC2)CC1 (stereo unspecified)	2.5	-6.6	-17.7	-1.9	?	-0.1
64	CN1C(=O)/C(=C/c2ccc(OCc3ccccc3F)cc2)NC1=S	2.7	32.4	-5.6	5.1	9.3%	0.9
65	O=C(COc1cccc2cccnc12)N/N=C/c1ccc(O)cc1	0.0	-4.0	2.4	1.5	4.6%	-1.3
66	Cc1ccc(CNC(=O)CSc2nc(=O)n3ccc(C)cc3n2)cc1	-1.5	-4.9	-19.9	0.3	-0.6%	0.2

Screening results from PubChem BioAssay.
